A1 inh: A1 inhibition; MEF A1-2A-BIM cells, caspase-Glo luminescence, 3 h; percent of clofoctol signal, DMSO as zero; caspase activation, % (concentration not given with the values); 0.51% of 21,000 active;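 active means most replicate scores above 10, or exactly half above 10 with mean activity above 10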;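 further: effector caspase 3 and 7 activity cleaving a DEVD luciferin substrate; 50 nL library stock added to about 30 µL; numbers are from one replicate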
BJeLR viability: compounds reducing viability of BJeLR cells; BJeLR fibroblasts viability, CellTiterGlo ATP luminescence, 48 h; HRASV12, hTERT and SV40 LT/ST transformed; viability loss activity score, % (test concentration not listed); 0.64% of 30,000 active; in the data active means viability loss activity score above about 50%; about a fifth of its hits are not listed in these tables;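 further: higher score means fewer live cells and less ATP luminescence; stock transfer was 50 or 100 nL into about 30 µL; 0% = vehicle wells and 100% = a reference killing control; one replicate is shown; the record names a cut of 85%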
* marks the source's active call; other numbers are inactive results; nt = not tested or not shown.

The first 2 compounds as a preview:
SMILES	A1 inh	BJeLR viability
COc1cccc(C(CC(=O)c2ccc(Cl)cc2)C(C#N)C#N)c1 (stereo not drawn)	1.2	-1.3
Cc1noc(C)c1NC(=O)N(C)C[C@@H]1Oc2ccc(NC(=O)Nc3ccc(C(F)(F)F)cc3)cc2C(=O)N([C@@H](C)CO)C[C@H]1C	0.4	-3.3

The whole of this part, from the first entry:
SMILES	A1 inh	BJeLR viability
COc1cccc(C(CC(=O)c2ccc(Cl)cc2)C(C#N)C#N)c1 (stereo not drawn)	1.2	-1.3
Cc1noc(C)c1NC(=O)N(C)C[C@@H]1Oc2ccc(NC(=O)Nc3ccc(C(F)(F)F)cc3)cc2C(=O)N([C@@H](C)CO)C[C@H]1C	0.4	-3.3
Oc1cc2c(cc1O)CN(C(=S)NCCc1ccc(Cl)cc1)CCC2	-0.6	-0.5
CN(C)CC/C=C1\c2ccccc2Sc2ccc(Cl)cc21	1.6	-0.4
Cc1ccc(S(C)(=O)=O)cc1	0.4	0.1
O=C(Oc1ccc(C2SCCS2)cc1)C1CCCCC1	-1.3	-1.3
CC1=C(C(=O)OCc2ccccc2)C(c2ccoc2)C(C#N)=C(N)S1 (stereo not drawn)	0.3	-7.6
CCS(=O)(=O)N1N=C(c2ccccc2)CC1c1cc2cc3c(cc2nc1Cl)OCCO3 (stereo not drawn)	0.2	1.4
COc1ccc(S(=O)(=O)Nc2ccc3c(c2)C(=O)N([C@H](C)CO)C[C@@H](C)[C@H](CN(C)Cc2ccncc2)O3)cc1	0.4	-5.7
O=C(NCc1ccccc1)c1csc2c1CCCC2	nt	1.1
C[C@H](CO)N1C[C@H](C)[C@@H](CN(C)C(=O)NC2CCCCC2)Oc2ccc(NS(=O)(=O)c3cn(C)cn3)cc2C1=O	-0.2	6.1
CC(C)(C)c1ccc(CSCC(=O)Nc2ccccc2C#N)cc1	-0.8	-3.7
C[C@H]1CN([C@@H](C)CO)C(=O)c2cc(NC(=O)Cc3cn(C)c4ccccc34)ccc2O[C@@H]1CN(C)S(=O)(=O)c1ccccc1	0.4	-0.5
COc1ccc2[nH]c3c(=O)n(CCCC(=O)N4CCCC4)c(=S)[nH]c3c2c1	0.5	-3.1
CC1=CCC2C(C)(CC[C@H](O)C2(C)C)C1COc1ccc2ccc(=O)oc2c1 (stereo partly drawn)	-0.3	3.4
Cn1cc(CCC(=O)NC2CCCCC2)c2ccccc21	-0.1	-3.7
CC12CN(Cc3ccccc3)CC(C)(CN(Cc3ccccc3)C1)C2=O	0.0	1.9
COc1ccc(CN(C)C[C@H]2Oc3c(NC(=O)Nc4ccc5c(c4)OCO5)cccc3C(=O)N([C@H](C)CO)C[C@H]2C)cc1	nt	-3.7
CCCC1=NN(C(=O)C(C)(C)C)C(=O)C1Cc1c(F)cccc1Cl (stereo not drawn)	0.1	-3.6
Cc1cc(C(=O)Nc2cccc3c2O[C@H](CN(C)Cc2ccccc2)[C@@H](C)CN([C@H](C)CO)C3=O)n(C)n1	nt	-4.6
CCCNC(=O)CSc1nc2nc(C)c(Cc3cccc(C)c3)c(C)n2n1	nt	-8.8
COC(=O)CC1SC(=O)NC1=Nc1ccc(O)cc1 (stereo not drawn)	1.7	1.0
O=C(NCCn1cc(SCC(=O)N2CCCCC2)c2ccccc21)c1ccccc1F	nt	-12.8
COc1ccc(CN(C)C[C@@H]2Oc3c(NS(=O)(=O)c4ccccc4)cccc3C(=O)N([C@H](C)CO)C[C@H]2C)cc1	nt	0.8
Cn1c(C(=O)N2CCN(c3ccccc3F)CC2)cc2c(=O)[nH]c3ccccc3c21	nt	-1.3
C[C@H](CO)N1C[C@H](C)[C@@H](CN(C)C(=O)NC2CCCCC2)Oc2ccc(NS(=O)(=O)c3cccs3)cc2C1=O	-0.2	1.1
C[C@H]1CN([C@@H](C)CO)C(=O)c2cccc(NS(=O)(=O)c3ccc(Cl)cc3)c2O[C@H]1CN(C)Cc1ccccc1	nt	0.7
CCOC(=O)c1sc(SC)c2c1CC(c1ccc(OC)cc1)CC2=O (stereo not drawn)	-0.4	-1.2
C[C@@H]1CN([C@H](C)CO)C(=O)c2cc(NC(=O)Nc3ccc4c(c3)OCO4)ccc2O[C@@H]1CN(C)Cc1ccc(-c2ccccc2)cc1	-0.4	-6.3
O=C1CC(c2ccccc2)CN1Cc1ccccc1 (stereo not drawn)	0.3	2.1
O=c1cc(-c2ccccc2)nc(Nc2nc3ccccc3o2)[nH]1	-2.4	20.8
C[C@@H]1CN([C@@H](C)CO)C(=O)c2cccc(NS(=O)(=O)c3cn(C)cn3)c2O[C@@H]1CN(C)C	nt	-5.4
O=C1c2ccccc2S(=O)(=O)N1CCS(=O)(=O)c1ccc(Cl)cc1Cl	0.2	4.4
COc1ccc(NC(=O)Nc2cccc3c2O[C@@H](CN(C)C(=O)Nc2ccc4c(c2)OCO4)[C@@H](C)CN([C@@H](C)CO)C3=O)cc1	nt	-0.6
CC(C)=CCC/C(C)=C/CC/C(C)=C/CSCC(=O)O	0.2	-5.0
Cn1cnc2nc(NCCO)nc(NCc3ccccc3)c21	-0.3	-5.0
COc1ccc(S(=O)(=O)Nc2ccc3c(c2)C(=O)N([C@H](C)CO)C[C@@H](C)[C@H](CN(C)Cc2ccc(C(F)(F)F)cc2)O3)cc1	-0.5	-1.3
Cc1ccc(Cn2c(CN3CC(C)OC(C)C3)nc3c2c(=O)[nH]c(=O)n3C)cc1 (stereo not drawn)	-0.7	-3.6
COc1ccc(-c2ocnc2C(=O)NCc2nn(-c3ccccc3)nc2C)cc1	-0.8	6.2
COc1ccc(NC(=O)Nc2cccc3c2O[C@H](CN(C)Cc2ccc4c(c2)OCO4)[C@H](C)CN([C@H](C)CO)C3=O)cc1	nt	-5.4
O=C1c2ccccc2C(=O)N1c1ccc(Cl)cc1	nt	4.9
C[C@@H]1CN([C@@H](C)CO)C(=O)c2cccc(NS(=O)(=O)c3cn(C)cn3)c2O[C@H]1CN(C)S(=O)(=O)c1cccs1	nt	2.8
COc1ccc(CN(C)C[C@@H]2Oc3ccc(NC(=O)C4CC4)cc3C(=O)N([C@@H](C)CO)C[C@H]2C)cc1	0.8	0.1
CC(C)NC(=O)N(C)C[C@@H]1Oc2c(NS(=O)(=O)c3cccs3)cccc2C(=O)N([C@H](C)CO)C[C@H]1C	nt	0.4
COc1cccc(OC)c1C(=O)Nc1ccccc1NC(=O)c1c(OC)cccc1OC	1.0	-5.1
CC(=O)N(CCc1ccccc1)C1CC(=O)N(c2ccccc2)C1=O (stereo not drawn)	0.8	2.0
C[C@H]1CN([C@@H](C)CO)C(=O)c2cc(NC(=O)Cc3ccccc3)ccc2O[C@@H]1CN(C)Cc1ccc(-c2ccccc2)cc1	0.0	-7.1
COc1ccc(S(=O)(=O)N(C)C[C@@H]2Oc3ccc(NC(=O)Nc4c(C)noc4C)cc3C(=O)N([C@H](C)CO)C[C@@H]2C)cc1	-0.1	-2.5
O=C(Cn1ncc2c(=O)oc3ccccc3c21)N1CCN(C2CCCCC2)CC1	nt	1.5
COC(=O)CCC(=O)Nc1ccc(S(=O)(=O)Nc2cc(C)cc(C)c2)cc1	nt	1.9
C[C@@H]1CN([C@H](C)CO)C(=O)c2cccc(NS(C)(=O)=O)c2O[C@H]1CN(C)Cc1ccc(Oc2ccccc2)cc1	nt	-2.2
COc1ccc(CN(C)C[C@@H]2Oc3ccc(NS(=O)(=O)c4ccc(F)cc4)cc3C(=O)N([C@H](C)CO)C[C@H]2C)cc1	0.1	-0.6
Cc1noc(C)c1S(=O)(=O)Nc1ccc2c(c1)C(=O)N([C@@H](C)CO)C[C@H](C)[C@@H](CN(C)Cc1ccc(C(=O)O)cc1)O2	-0.4	-2.6
Oc1ccc(Cl)cc1Sc1cc(Cl)ccc1O	nt	28.7
COC(=O)c1cc(NC(=S)NN(C)C)ccc1Cl	nt	-4.7
C[C@H](CO)N1C[C@H](C)[C@@H](CN(C)C)Oc2c(NS(=O)(=O)c3ccc(F)cc3)cccc2C1=O	nt	1.2
C[C@H]1CN([C@@H](C)CO)C(=O)c2cc(NS(C)(=O)=O)ccc2O[C@@H]1CN(C)CC1CCCCC1	-0.2	5.0
O=C1CCC(=O)N1CCOP1(=O)COc2ccccc2OC1	0.2	-1.6
CCOC(=O)C1=C(C2CC=CCC2)NC(=S)NC1C (stereo not drawn)	0.5	-1.0
Cc1noc(C)c1NC(=O)Nc1cccc2c1O[C@H](CN(C)C(=O)NC1CCCCC1)[C@H](C)CN([C@@H](C)CO)C2=O	nt	-3.9

(further entries)
SMILES	A1 inh	BJeLR viability
COc1cc(C=Nc2ccc(Cl)cc2)ccc1OC(=O)/C=C/c1cccs1	-0.2	-3.8
COc1ccc(S(=O)(=O)Nc2cccc3c2O[C@@H](CN(C)CC2CCCCC2)[C@H](C)CN([C@H](C)CO)C3=O)cc1	nt	-0.9
O=C(Nc1ccccc1)OCC#Cc1ccc(-c2ccccn2)s1	0.6	-1.9
CC(=O)OCC(=O)[C@@]1(O)CCC2C3CCC4=CC(=O)CC[C@]4(C)C3[C@@H](O)C[C@@]21C (stereo partly drawn)	0.8	-3.6
C[C@@H]1CN([C@@H](C)CO)C(=O)c2cccc(NC(=O)c3ccc(-c4nccs4)cc3)c2O[C@H]1CN(C)C(=O)Nc1ccc(C(F)(F)F)cc1	nt	-5.1
CCN(CC)S(=O)(=O)c1ccc(NC(=O)c2ccc(C)cc2)cc1	nt	0.0
Cc1noc(C)c1NC(=O)N(C)C[C@H]1Oc2ccc(NC(=O)Cn3cnnn3)cc2C(=O)N([C@@H](C)CO)C[C@H]1C	-0.3	3.4
C[C@H](CO)N1C[C@H](C)[C@@H](CN(C)Cc2ccc(Cl)c(Cl)c2)Oc2c(NS(C)(=O)=O)cccc2C1=O	nt	2.1
O=c1[nH]c2ccccc2n1CCCSc1nc2ccccc2[nH]1	1.0	1.8
O=C(CSc1nnc2ccc3ccccc3n12)c1ccccc1	nt	-0.6
CC(C)NC(=O)N(C)C[C@H]1Oc2ccc(NC(=O)Nc3cccc4ccccc34)cc2C(=O)N([C@@H](C)CO)C[C@@H]1C	-0.5	-3.9
COc1cc(/C=C\C(=O)OCn2nnc3ccccc3c2=O)cc(OC)c1OC	nt	6.1

Looked up one by one from the entries so far:
SMILES	A1 inh	BJeLR viability
C[C@H](CO)N1C[C@H](C)[C@@H](CN(C)Cc2ccc(Cl)c(Cl)c2)Oc2c(NS(C)(=O)=O)cccc2C1=O	nt	2.1
C[C@@H]1CN([C@@H](C)CO)C(=O)c2cccc(NC(=O)c3ccc(-c4nccs4)cc3)c2O[C@H]1CN(C)C(=O)Nc1ccc(C(F)(F)F)cc1	nt	-5.1

Some of the entries above in a different format.
O=c1[nH]c2ccccc2n1CCCSc1nc2ccccc2[nH]1
  A1 inh: 1.0
  BJeLR viability: 1.8
O=C(CSc1nnc2ccc3ccccc3n12)c1ccccc1
  A1 inh: nt
  BJeLR viability: -0.6
CC(C)NC(=O)N(C)C[C@H]1Oc2ccc(NC(=O)Nc3cccc4ccccc34)cc2C(=O)N([C@@H](C)CO)C[C@@H]1C
  A1 inh: -0.5
  BJeLR viability: -3.9
COc1cc(/C=C\C(=O)OCn2nnc3ccccc3c2=O)cc(OC)c1OC
  A1 inh: nt
  BJeLR viability: 6.1

The list continues.
SMILES	A1 inh	BJeLR viability
CN(C)c1ccc(C2CC(c3ccc(Br)cc3)=NN2S(C)(=O)=O)cc1 (stereo not drawn)	nt	6.9
C/C=C(/C)C(=O)O[C@@H]1c2cc(OC)c(OC)cc2-c2c(ccc(OC)c2OC)C[C@H]2C(=O)OC[C@H]12	0.2	12.1
CN(CC(=O)NCc1ccccc1)S(=O)(=O)c1ccc2c(c1)CCC(=O)N2	nt	1.6
Cc1cc(C)c(C(=O)Nc2ccc(C)c(C)c2)c(CC(C)(C)C(=O)O)c1	1.2	-4.6
C[C@H]1CN([C@@H](C)CO)C(=O)c2cc(NS(=O)(=O)c3ccc(F)cc3)ccc2O[C@@H]1CN(C)C	-0.5	-4.4
OC1(c2ccc3c(c2)OCO3)OCC2C(c3ccc4c(c3)OCO4)OCC21O (stereo not drawn)	1.0	0.2
Cc1ccc(O)c(C(CC(=O)NCC2(c3ccccc3)CCOCC2)c2ccccc2)c1 (stereo not drawn)	nt	-1.2
O=C(Nc1ccc(I)cc1)c1nsc(Cl)c1Cl	-3.2	7.7
O=C(Cn1c(=O)n(-c2ccccc2)c(=O)n1CC(=O)N1CCOCC1)N1CCOCC1	nt	-2.2
CCS(=O)(=O)N1CCC(C(=O)NCCCN2CCN(c3ccccc3F)CC2)CC1	-0.1	3.8
C[C@@H]1CN([C@@H](C)CO)C(=O)c2cc(NC(=O)Nc3ccccc3)ccc2O[C@H]1CN(C)Cc1ccncc1	0.3	-1.0
C[C@@H]1CN([C@@H](C)CO)C(=O)c2cc(NC(=O)c3ccncc3)ccc2O[C@@H]1CN(C)C	0.1	-2.8
CC(C)NC(=O)Nc1cccc2c1O[C@H](CN(C)S(C)(=O)=O)[C@H](C)CN([C@@H](C)CO)C2=O	nt	0.2
COc1ccc2nc3sc(C(=O)N4CCCC4)cc3cc2c1	nt	1.4
C[C@H]1CN([C@@H](C)CO)C(=O)c2cc(NC(=O)Nc3ccc4c(c3)OCO4)ccc2O[C@H]1CN(C)Cc1ccc(Oc2ccccc2)cc1	-0.7	-0.6
CCN(c1ccc(OC)cc1)S(=O)(=O)c1ccc2c(c1)CC(C)N2C(=O)C1CC1 (stereo not drawn)	-0.2	4.9
Cn1ccc(-c2cccc(NC(=O)Nc3ccccc3)c2)n1	-3.4	1.3
C[C@H]1CN([C@@H](C)CO)C(=O)c2cc(NS(C)(=O)=O)ccc2O[C@@H]1CN(C)C(=O)Nc1cccc2ccccc12	0.1	-2.4
CC1(C)CC(=O)c2cc(C#N)c(SCSc3nc4c(cc3C#N)C(=O)CC(C)(C)C4)nc2C1	-0.4	2.1
C[C@H]1CN([C@@H](C)CO)C(=O)c2cc(NS(=O)(=O)c3cn(C)cn3)ccc2O[C@H]1CN(C)CC1CC1	0.2	1.9

Bioassay records from PubChem.

Not all compounds are listed, so the mix of outcomes need not match the whole.
